Arbovirus inh – blocks arbovirus infection | AID 1251 | 200,000 tested, 0.37% active | inhibition, % at 10 µM | arbovirus infection cell-based antiviral screen;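 active = inhibition from about 30%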;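 also: bluetongue infection of BSR cells; cell survival read as ATP light after 72 h; 0% = infected wells without compound and 100% = uninfected wells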
Mtb H37Rv – M. tuberculosis H37Rv growth inhibitors, H37Rv strain (AID 1626); 220,000 tested, 0.95% active; inhibition, % at 10 µM; hits with a dose series show IC50 in µM; M. tuberculosis H37Rv growth inhibition; higher % means a stronger effect;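 active = confirmed in a dose series; inconclusive = inhibition above 80% but not taken into the dose series; inactive = below 80% or under 30% at every dose of the series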;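 also: bacteria incubated seven days before Alamar blue readout; 0% = bacteria only wells and 100% = bacteria with antibiotic wells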
Mtb bLac sens – beta-lactam sensitization of Mtb H37Rv | AID 434955 | M. tuberculosis H37Rv growth with meropenem, percent inhibition; hits of this screen are not shown here | 330,000 tested, 0.27% active | inhibition, % at 25 µM;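 active = about 74% or more and at least 40 points above the plate without the antibiotic, then above 30% in a dose series; inconclusive = first-round hits that could not be retested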;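 also: growth measured after seven days incubation then overnight dye step; 0% = bacteria only wells and 100% = bacteria with antibiotic; twin plates without the antibiotic show which effects depend on it; some results filed as inactive read as strong as hits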
RecA intein inh – Mtb RecA intein splicing inhibition | P9WHJ3 | cell-free RecA intein splicing, fluorescence | inhibition, %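 (about 9 µM by stock and volumes)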 | 290,000 tested, 0.75% active | AID 2221; in the data active = inhibition above about 30%; inconclusive = no clear call, values can overlap the other calls;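 also: 0% = vehicle wells and 100% = reference inhibitor control wells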
Target sequence (P9WHJ3 whole entry, looked up): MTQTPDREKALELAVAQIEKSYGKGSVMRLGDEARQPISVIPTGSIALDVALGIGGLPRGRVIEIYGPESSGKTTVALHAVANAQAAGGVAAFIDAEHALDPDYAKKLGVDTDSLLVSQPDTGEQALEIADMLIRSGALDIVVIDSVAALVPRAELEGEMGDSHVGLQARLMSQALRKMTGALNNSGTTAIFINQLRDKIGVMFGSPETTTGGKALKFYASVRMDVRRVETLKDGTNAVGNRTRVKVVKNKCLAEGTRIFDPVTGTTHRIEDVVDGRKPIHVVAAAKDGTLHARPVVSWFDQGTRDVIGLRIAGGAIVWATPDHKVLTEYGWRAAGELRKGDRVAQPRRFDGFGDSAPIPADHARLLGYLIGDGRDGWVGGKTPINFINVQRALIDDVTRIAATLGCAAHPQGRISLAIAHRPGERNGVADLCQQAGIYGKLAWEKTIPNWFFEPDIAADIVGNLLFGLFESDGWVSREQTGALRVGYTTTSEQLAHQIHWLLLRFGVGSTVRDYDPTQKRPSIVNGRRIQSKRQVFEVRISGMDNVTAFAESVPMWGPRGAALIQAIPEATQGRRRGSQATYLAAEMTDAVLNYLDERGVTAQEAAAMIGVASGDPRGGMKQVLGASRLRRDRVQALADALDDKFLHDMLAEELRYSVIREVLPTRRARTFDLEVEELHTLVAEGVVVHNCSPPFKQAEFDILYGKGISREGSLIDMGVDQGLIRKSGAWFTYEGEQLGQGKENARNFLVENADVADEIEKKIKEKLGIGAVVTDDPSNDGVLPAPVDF
YopH PTP inh – inhibitors of Yersinia enterocolitica YopH tyrosine phosphatase; fluorescence Ex485/Em525; AID 898; 140,000 tested, 0.16% active; inhibition, %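 (about 10 µM by stock and volumes)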;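 active = inhibition of 50% or more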;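 also: controls were vehicle for no effect and minimum signal wells for full effect; inactives centre near -20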
Arbovirus inh repeat – also measured in Arbovirus inh; calls as there; inhibition, %; measured here: 10K subset replicate screen; many hits read low in the repeat;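 first of two repeat runs on a subset; 0% = infected and 100% = uninfected wells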
* hit, by the source's call; ? = inconclusive; nt = not tested or not shown. This is a subset, so the mix of outcomes need not match the whole.

SMILES	Arbovirus inh	Mtb H37Rv	Mtb bLac sens	RecA intein inh	YopH PTP inh	others
COc1cccc(C(=O)N2CCN(C(=O)c3ccc(-c4ccccc4)cc3)CC2)c1OC	-4.1	-4.1%	3.5	2.1	nt
COc1ccc(C(=O)NCC(=O)N=Nc2c(O)n(C)c3ccccc23)cc1OC	nt	-7.9%	-4.7	-0.4	nt
CCCCN(CCCC)S(=O)(=O)c1ccc2[nH]c(=O)[nH]c2c1	-4.3	0.6%	-7.5	4.8	-22.5
COC(=O)C1C(=O)C2=C(CC1C)NC(C)=C(C(=O)OCCOc1ccccc1)C2c1ccc(C)o1 (centres undefined)	-7.4	-7.7%	-7.5	8.1	-3.0
Oc1cccc(Nc2nc(-c3ccccc3)nc3ccccc23)c1	nt	nt	8.4	0.6	nt
COc1cccc(Nc2ncccc2C(=O)NCc2ccccc2)c1	7.6	5.6%	nt	nt	-5.6
O=C(NNS(=O)(=O)c1ccc(Cl)cc1Cl)c1cc2ncc(C(F)(F)F)cc2s1	nt	-4.8%	-3.5	1.4	nt
Cc1ccc(Oc2nc3ccccn3c(=O)c2/C=C(\C#N)C(=O)NC2CCS(=O)(=O)C2)c(C)c1 (centres undefined)	nt	nt	0.9	-4.2	nt
CCCCC/C(=N\O)c1c[nH]c2ccccc12	-11.4	0.6%	-2.3	6.3	-16.4
Cn1nc(SCC(=O)O)sc1=S	8.3	-13.6%	3.3	-0.3	-33.6
COC(=O)c1ccccc1NC(=O)COc1ccc(S(=O)(=O)N2CCCC2)cc1C	-10.1	2.5%	15.3	-0.6	-18.4
COc1cccc(NC(=O)CSc2nnc3cc(C)nc(N)n23)c1	-4.2	-3.0%	-3.6	-1.9	nt
O=C(N/N=C/c1cn(Cc2ccccc2)c2ccccc12)c1cc(O)cc(O)c1	nt	nt	3.6	4.6	nt
CCOC(=O)N1CCN(C(=O)C(C)c2ccc([N+](=O)[O-])cc2)CC1 (centres undefined)	nt	nt	-2.1	-2.4	nt
Cc1cc(C)cc(C(=O)NCC(=O)OCC(=O)N(C)C2CCS(=O)(=O)C2)c1 (centres undefined)	6.1	-6.1%	-3.5	-6.0	-13.9
CCc1ccc(NC(=O)NCc2ccc3c(c2)OCO3)cc1	nt	nt	-1.9	1.2	nt
O=C(Cn1cnc2ccccc21)OCC(=O)N1CCCc2ccccc21	4.0	nt	-4.7	-0.6	7.8
CCc1ccccc1N(C1=NCCCS1)S(=O)(=O)c1ccc(C(C)(C)C)cc1	2.8	0.7%	5.9	-3.3	-38.9
O=C(C1CCC(=O)N(C2CC2)C1)N1CCC(Oc2ccccc2F)CC1 (centres undefined)	nt	nt	?	2.0	nt
CC(NC(=O)CCC(=O)N1CCN(S(=O)(=O)c2ccc(Cl)cc2)CC1)c1ccccc1 (centres undefined)	-0.7	-0.3%	0.5	-1.7	-13.6
C=CCNC(=S)NC(=O)c1ccc(C)c(Br)c1	5.3	3.9%	-2.3	1.4	nt
CC(C)Oc1ccc(Cc2n[nH]c(=S)n2Cc2ccccc2)cc1Cl	6.3	2.5%	-5.9	1.7	nt
Cc1ccc(NC(=O)CCc2ccc(S(=O)(=O)NC3CCCCC3)cc2)cc1	-4.0	0.9%	-0.6	-1.8	-106.0
COC(=O)c1ccc(C(=O)OC)nc1	9.8	-1.5%	-3.7	1.8	-34.3
COc1ccc(N(CC(=O)Nc2cccc(N(C)S(C)(=O)=O)c2)S(C)(=O)=O)cc1OC	-1.4	-4.0%	8.8	-3.4	-2.9
O=C(NN=C1CCCC1)c1n[nH]c2c1CCCC2	11.3	7.0%	2.7	-3.1	nt
Cc1[nH]n(-c2ccccc2)c(=O)c1N=Nc1ccccc1C(=O)N1CCOCC1	-20.5	-3.2%	0.6	2.4	-32.0
O=C(CS(=O)(=O)c1cn(Cc2ccc(Cl)cc2)c2ccccc12)N1CCCCC1	-5.5	-5.2%	0.6	-3.3	-34.5
Cc1ccc(-c2nnc(-c3cccs3)o2)cc1	1.8	-0.5%	3.0	-1.9	nt
O=C(c1cc([N+](=O)[O-])ccc1Cl)N1CCN(c2ccccn2)CC1	-2.0	-2.3%	-6.8	4.2	nt
CCOc1ccccc1NC(=O)CCS(=O)(=O)c1ccc2c(c1)CC(C)N2C(C)=O (centres undefined)	nt	nt	-3.0	-1.2	nt
CCOc1ccccc1NC(=O)C1CCN(S(=O)(=O)c2c(C)nn(C)c2C)CC1	3.4	3.9%	2.6	2.3	-1.1
COc1ccc2nc(SCCC(=O)O)cc(C)c2c1	nt	-11.3%	-6.1	0.2	nt
CC(=O)Nc1ccc(S(=O)(=O)NCC(=O)NCCCc2ccccc2)cc1	nt	nt	-5.9	-1.1	nt
CCC(=O)c1cn(CC(=O)NCC2CCCO2)c2ccccc12 (centres undefined)	1.9	-12.3%	5.6	nt	-15.3	Arbovirus inh repeat=3.0
Cc1nc2c(C)cccc2c2c1COC2	nt	1.5%	3.7	-0.2	nt
Cc1nc(SCCOc2ccc(F)cc2)c2ccccc2n1	11.2	-6.7%	9.7	6.5	nt
CC(C)n1c(=O)c(C=Nc2cccc([N+](=O)[O-])c2)c(O)n(CCc2ccccc2)c1=O	5.9	6.1%	-1.4	3.6	-15.2
CN(CC(=O)NC(=O)NC(C)(C)C)CC(=O)Nc1ccccc1Cl	-2.0	-8.1%	2.5	3.9	nt
N#Cc1ccc(CSc2nnc(-c3ccccn3)n2-c2ccc(Cl)cc2)cc1	-5.7	-5.6%	-10.7	2.0	-20.7
CC(C)C(C)NC(=O)COc1ncnc2sccc12 (centres undefined)	16.8	-1.3%	-5.2	6.0	nt
Cc1cc2c(Nc3ccc(O)cc3)ncnc2s1	nt	nt	1.2	3.8	nt
CCCCOc1ccc(-c2nnn(CCC(=O)N3CCOCC3)n2)cc1	7.1	1.7%	6.2	0.2	-39.8
N/C(Cc1ccccc1Sc1ccccc1)=N\O	2.6	-3.6%	2.3	5.3	-34.6
COc1ccccc1N1CCN(Cc2cnc(-c3ccccc3)[nH]2)CC1	nt	-4.6%	-1.6	-0.8	nt

Of the compounds above, these have a tert-butyl group.
SMILES	Arbovirus inh	Mtb H37Rv	Mtb bLac sens	RecA intein inh	YopH PTP inh	others
CCc1ccccc1N(C1=NCCCS1)S(=O)(=O)c1ccc(C(C)(C)C)cc1	2.8	0.7%	5.9	-3.3	-38.9
CN(CC(=O)NC(=O)NC(C)(C)C)CC(=O)Nc1ccccc1Cl	-2.0	-8.1%	2.5	3.9	nt

Next structures.
SMILES	Arbovirus inh	Mtb H37Rv	Mtb bLac sens	RecA intein inh	YopH PTP inh	others
O=C(CCc1ccccc1)NNC(=O)c1ccccc1C(=O)O	-5.2	-3.2%	-3.1	-0.5	-30.0
CCN(CC)CCn1c(NCc2ccc3c(c2)OCO3)nc2ccccc21	-3.0	8.1%	-4.5	-0.8	nt
COc1ccc(CN(CC(O)COc2cccc3[nH]cc(C)c23)C(C)(C)C)cc1 (centres undefined)	nt	nt	7.5	-2.6	nt
CCOc1ccc(NC(=O)CN2C(=O)COc3ccc(S(=O)(=O)N4CCCC4)cc32)cc1	nt	nt	0.1	2.1	nt
Cc1ccc2cc(C#N)c(SCC(=O)N3CCCc4ccccc43)nc2c1	-5.9	7.5%	-4.3	-2.5	-27.0
O=C(c1cc(COc2ccc(F)cc2Cl)on1)N(CCO)Cc1cccs1	nt	nt	-2.2	4.2	nt
Cn1c(SCC(=O)NCC2CCCO2)ncc(C(=O)Nc2ccc(F)cc2)c1=O (centres undefined)	nt	nt	53.5	38.6*	nt
COc1ccc(/C=C/C(=O)Nc2ccccc2C(F)(F)F)cc1	3.7	3.6%	-3.0	1.1	-25.8
CN1CCN(C(=O)c2cc(S(=O)(=O)Nc3ccccc3F)c(Cl)cc2Cl)CC1	nt	-1.6%	-1.5	-0.3	nt
Clc1ccc(-c2noc3c2-c2nc(Cc4cccc5ccccc45)sc2CC3)cc1	nt	nt	2.3	-1.6	nt
CCCCn1c(=N)n(CC(=O)C(C)(C)C)c2ccccc21	-2.4	6.0%	46.9	4.8	-34.5
COc1ccc(C(=O)NCC(=O)OCC(=O)Nc2cccc(S(=O)(=O)N3CCCC3)c2)cc1	nt	-4.3%	-5.1	-0.6	nt
COc1cc(CNC2CCCC2)cc(Cl)c1OCc1ccccc1F	-37.8	1.0%	-0.9	2.6	1.6
CCOc1ccccc1OCCOCCOc1ccccc1[N+](=O)[O-]	3.6	10.7%	7.1	0.4	-24.1
CCn1c(CN2CCN(C(c3ccccc3)c3ccccc3)CC2)nc2c1c(=O)n(C)c(=O)n2C	nt	nt	12.0	4.8	nt

A draw from above in order of heavy-atom count, highest first:
SMILES	Arbovirus inh	Mtb H37Rv	Mtb bLac sens	RecA intein inh	YopH PTP inh	others
Cc1ccc2cc(C#N)c(SCC(=O)N3CCCc4ccccc43)nc2c1	-5.9	7.5%	-4.3	-2.5	-27.0
CCCCN(CCCC)S(=O)(=O)c1ccc2[nH]c(=O)[nH]c2c1	-4.3	0.6%	-7.5	4.8	-22.5
N/C(Cc1ccccc1Sc1ccccc1)=N\O	2.6	-3.6%	2.3	5.3	-34.6

Following part
SMILES	Arbovirus inh	Mtb H37Rv	Mtb bLac sens	RecA intein inh	YopH PTP inh	others
C=CCN(CC=C)C(=O)CN1C(=O)NC(Cc2c[nH]c3ccccc23)C1=O (centres undefined)	nt	nt	-1.9	-2.5	nt
CCC(=O)N1CCc2cc(S(=O)(=O)NCCC(=O)NCc3ccccc3OC)ccc21	nt	nt	-4.5	-1.3	nt
CC1(C)CC(NCCN2CCN(C3=CC(=C(C#N)C#N)CC(C)(C)C3)CC2)=CC(=C(C#N)C#N)C1	-7.3	27.9%	-5.9	-2.1	nt
Cn1nccc1NC(=O)CC1(CC(=O)O)CCCCC1	nt	6.3%	1.2	0.1	nt
CCCNC(=O)c1c(N)n(Cc2ccco2)c2nc3ccccc3nc12	-1.6	6.1%	0.8	-497.6	-4.4
O=C(CN1CCCC1)N1c2ccccc2Sc2ccc(Cl)cc21	nt	nt	3.1	-1.9	nt
NC(=O)Cn1c(O)c(N=NC(=O)CNC(=O)/C=C/c2ccccc2)c2ccccc21	nt	nt	-0.2	1.5	nt
O=C(COC(=O)CCC(=O)c1ccc(F)cc1)Nc1ccc(N2CCOCC2)cc1	2.6	-4.3%	-6.5	-2.6	-20.5
CC(=O)c1ccc(N2CCN(S(=O)(=O)c3cccc4nsnc34)CC2)cc1	-9.4	6.6%	-0.3	4.7	nt
Cc1ccc(NC(=O)N/C=C/c2ccco2)c(C)c1	1.1	-6.8%	11.1	-4.4	-5.9
COc1ccc(CN(C(=O)c2ccco2)c2ccc(C)c(C)c2)cc1	-9.6	13.2%	-6.4	14.0	nt
CCC(CC)c1nnc(NC(=O)c2c(-c3ccccc3)noc2C)s1	5.5	-4.9%	1.0	4.1	-32.1	Arbovirus inh repeat=-2.8
COc1cccc(-n2c(COc3ccc(C)cc3)nnc2SCC(N)=O)c1	-0.1	-10.7%	-4.9	2.4	-48.0
COC(=O)CNC(c1ccccc1)c1cc(Br)ccc1NC(=O)CNC(=O)OCc1ccccc1 (centres undefined)	-17.2	10.5%	28.4	1.1	-1.0
O=C(NCC1OCCCN1S(=O)(=O)c1cc(F)ccc1F)C(=O)NC1CCCCCC1 (centres undefined)	16.1	-1.8%	-0.2	-1.5	nt
O=C(Nc1ccc(Br)cc1)c1ccc(N2C(=O)C3CCCCC3C2=O)cc1 (centres undefined)	nt	nt	1.2	-0.8	nt
COc1ccc(C2NC(=O)NC(O)(C(F)(F)F)C2C(=O)c2ccc(C)cc2)cc1 (centres undefined)	1.3	-0.9%	2.0	-3.5	-21.8	Arbovirus inh repeat=3.7
O=C(Nc1nc(-c2ccccc2)cs1)Nc1ccc(F)cc1F	6.5	9.5%	72.2	0.9	nt
NC(=S)N/N=C/c1c(O)c(Br)cc2oc3c(c12)CCCC3	nt	-1.7%	10.9	5.0	nt
COc1ccccc1-c1nnc(SCC(=O)Nc2ccc(S(N)(=O)=O)cc2)n1C	4.1	3.3%	6.5	-3.6	-5.0
CCN(CC)P(=O)(Nc1ccc([N+](=O)[O-])cc1)c1c(C)nn(CCC#N)c1NC(=O)c1ccc(Cl)cc1Cl (centres undefined)	25.7	8.0%	5.6	2.2	nt
O=S(=O)(c1cc(Br)c(Cl)s1)N1CCCC1	nt	-6.1%	-3.3	3.0	nt
Cc1ccccc1N=Nc1c(N)n[nH]c1N	nt	nt	26.3	7.9	nt
COc1cccc(OCc2cc(C(=O)NCCN3CCCCC3CO)no2)c1 (centres undefined)	nt	nt	-10.7	3.3	nt
Cc1ccc(-n2ncc3c(=O)n(Cc4cccnc4)cnc32)cc1	0.7	-8.2%	nt	0.6	-45.4
CC(=O)Nc1ccc(N(C(=O)CNC(=O)c2cccs2)C(C(=O)NC(C)(C)C)c2ccccc2)cc1 (centres undefined)	-1.0	-3.5%	-10.3	0.3	nt

High-throughput results (PubChem BioAssay)
